PINK1 modulator: A Quantitative High throughput Screen to Identify Chemical Modulators of PINK1 Expression; Potency, µM (doses to about 76.6 µM), for the others: top-dose activation (PINK1 increase), usual class: activators; AID 624263, 2012; 410,000 tested, 0.2% active; PINK1 immunofluorescence, high-content cytometry, 24 h; active = well fitted activation curve with a large enough effect; inconclusive = small, poorly fitted or top-dose-only effect; inactive = flat fitted curve, though single readings scatter; cell line not stated here;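 further: potency means the concentration at half of the fitted maximal effect; % of control where 0% means no effect; nearly all actives have a fitted effect of over 65% in size; a mitochondrial uncoupler was the plate control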
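Decision-based qHTS: stable cells, 24 h exposure to five compound concentrations, CCCP as control. Fixed cells stained for PINK1 plus nuclear, mitochondrial and cell markers, cytometer read.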
Menin-MLL FL inh: qHTS Assay for Inhibitors Targeting the Menin-MLL Interaction in MLL Related Leukemias: Competition With Fluorescein Labeled MLL-derived Peptide. Fluorescence polarization, fluorescein-MLL peptide displacement from menin. FP activity change, % at 61.4 µM. 290,000 tested, under 10 active; inconclusive = falling polarisation curve, or a change in total fluorescence; inactive = total fluorescence flat and polarisation flat or rising; no compound was filed as active; the % refers to the polarisation; negative = inhibition;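 further: % of control where 0% means no effect; inhibitors lower the polarisation; unlabelled MLL peptide was the positive control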
gsp ag: qHTS for Agonist of gsp, the Etiologic Mutation Responsible for Fibrous Dysplasia/McCune-Albright Syndrome: qHTS | gsp mutant cells, cAMP HTRF, 30 min; control for the full effect not named in the record | Potency, µM (series often up to 76.9 µM), for inactives: at the highest dose activation (cAMP increase), hits mostly activators | 340,000 tested, 0.13% active; active = well fitted activation curve with a large enough effect; inconclusive = small, poorly fitted or top-dose-only effect, or another doubt; inactive = no such curve, though single readings can be large or run the other way; cell line not stated here;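 further: phosphodiesterase inhibitor Ro 20-1724 added with compounds to block cAMP breakdown; potency means the concentration at half of the fitted maximal effect; nearly all actives have a fitted effect of over 60% in size; about a fifth of the inactives were tested at one dose only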
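Cells in DMEM/10% FBS with G418 were pretreated with compounds in DMSO plus […] (300 uM stock) for 30 min at 37C. cAMP was measured by HTRF (cAMP-d2 plus anti-cAMP antibody-K) after 30 min at room temperature.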
gsp antagonist: qHTS for Antagonists of gsp, the Etiologic Mutation Responsible for Fibrous Dysplasia/McCune-Albright Syndrome: qHTS. gsp-mutant cells, cAMP HTRF, 30 min; control for the full effect not named in the record. Potency, µM (series often up to 76.9 µM), for inactives: top-dose activity change, negative = inhibition, hits mostly inhibitors. 340,000 tested, 0.4% active. AID 624288, 2012; active = falling curve of any shape with a large fitted effect; inconclusive = falling curve, mostly with a smaller effect; inactive = flat or rising curve; cell line not stated here;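 further: intracellular cAMP measured with PDE inhibitor Ro 20-1724 present during compound exposure; potency means the concentration at half of the fitted maximal effect; on the % scale 0 is the no-effect control and ±100 the full control effect; nearly all actives have a fitted effect of over 65% in size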
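Cells in G418 medium, seeded 16-24 h, 37C; buffer exchange to DPBS + 1 mM CaCl2, 0.5 mM MgCl2, 0.05% BSA; cpds in DMSO + […] (300 uM stock), 30 min 37C; HTRF cAMP detection.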
D2 agonist: Beta-Arrestin HTS for Positive Allosteric Modulators of the Human D2 Dopamine Receptor: Agonists. D(2) dopamine receptor (Homo sapiens), P14416. DiscoveRx PathHunter D2 beta-arrestin, luminescence, 90 min; 100% = 57 uM dopamine signal. activation, % (no concentration beside the values). 360,000 tested, 0.084% active; in the data active = activation above about 40%; inconclusive = about 15% to 40%; inactive = below about 15%; further: compound concentration not given in the record; the text of the record calls up to 30% inactive
Target sequence (P14416 whole entry, looked up): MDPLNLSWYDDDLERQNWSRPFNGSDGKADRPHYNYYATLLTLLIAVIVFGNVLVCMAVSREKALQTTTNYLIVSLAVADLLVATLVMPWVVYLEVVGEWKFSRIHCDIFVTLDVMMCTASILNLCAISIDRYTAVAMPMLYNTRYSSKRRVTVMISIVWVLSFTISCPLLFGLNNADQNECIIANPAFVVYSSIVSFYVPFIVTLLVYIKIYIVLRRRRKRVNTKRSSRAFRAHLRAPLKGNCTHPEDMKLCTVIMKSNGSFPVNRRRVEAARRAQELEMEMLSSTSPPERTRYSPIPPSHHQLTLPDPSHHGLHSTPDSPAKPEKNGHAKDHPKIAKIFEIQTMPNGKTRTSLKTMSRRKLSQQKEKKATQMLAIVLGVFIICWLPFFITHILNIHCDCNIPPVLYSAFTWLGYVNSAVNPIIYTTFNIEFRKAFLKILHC
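Agonist mode: compounds alone added to overnight-plated D2 PathHunter cells for 90 min at 37 C, with 57 uM final dopamine (EC100) defining full response. Beta-arrestin recruitment detected by chemiluminescent reagent, read after 1 h at ambient temperature.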
ClpP mod: qHTS Assay for Activators of ClpP | ATP-dependent Clp protease proteolytic subunit (Bacillus subtilis (strain 168)), P80244 | purified B. subtilis ClpP, FRET peptide cleavage, 20 min | Potency, µM (top dose mostly 57.5 µM), for inactives: top-dose activity change, negative = active | 340,000 tested, 1.9% active; active = well fitted falling curve with a large enough effect; inconclusive = small, poorly fitted or top-dose-only effect; inactive = no such curve, though single readings can be large or run the other way; further: potency means the concentration at half of the fitted maximal effect; the source files actives as falling curves though it sought activators and does not explain the sign; nearly all actives have a fitted effect of over 65% in size; many hits overshoot -100%
Target sequence (P80244 whole entry, looked up): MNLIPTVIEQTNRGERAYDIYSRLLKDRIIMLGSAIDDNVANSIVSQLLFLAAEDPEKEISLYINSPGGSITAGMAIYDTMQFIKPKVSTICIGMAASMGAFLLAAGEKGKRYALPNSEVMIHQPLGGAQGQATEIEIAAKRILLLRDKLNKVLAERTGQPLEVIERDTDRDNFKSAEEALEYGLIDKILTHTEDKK
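ClpP 10 microg/mL final, pH 8 Tris/KCl buffer with BSA, glycerol, Tween-20; compound pinned in; FRET-FV substrate; RT 20 min; Ex320/Em430; ΔFRET vs ADEP 5.8 microM, DMSO, no enzyme.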
Sfp inh: qHTS Assay for Inhibitors of Bacillus subtilis Sfp phosphopantetheinyl transferase (PPTase); 4'-phosphopantetheinyl transferase ffp (Bacillus subtilis), Q9F4F7; Biochemical Sfp PPTase activity, qHTS; Potency, µM, inactives show max response, negative = inhibition, usual class: inhibitors; 310,000 tested, 3.5% active; active means well fitted inhibition curve with a large enough effect; inconclusive means small, poorly fitted or top-dose-only effect, or another doubt; inactive means no such curve, though single readings can be large or run the other way;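 further: the enzyme is Sfp with the accession as filed and its product quenches rhodamine fluorescence; potency means the concentration at half of the fitted maximal effect; 0% = enzyme reaction without inhibitor and -100% = no enzyme wells; top concentration of the series not given in the record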
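After 15 min at room temperature with compound, 15 nM Sfp received 5 uM rhodamine-CoA plus 12.5 uM BHQ-2-ybbR (50 mM Hepes pH 7.6, 10 mM MgCl2). Rate came from the fluorescence difference over 30 min, ex 525/em 598 nm.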
Active calls of the source: *; ? = inconclusive; . = not tested or not shown; & = joins results of further samples; [ ] = remark or other dose. The order is random. Share with any hit: about 5.1%.

SMILES	PINK1 modulator	Menin-MLL FL inh	gsp ag	gsp antagonist	D2 agonist	ClpP mod	Sfp inh
Cc1cc(C)c2cc(C(=O)Nc3ccccc3)[nH]c2c1	8.4%	-2.2	0.6%[15.4 µM]	-10.7%	-2.5	0.2%	?
O=S(=O)(Nc1ccc2[nH]ncc2c1)c1ccccc1Cl	0.2%	0.0	1.8%[15.4 µM]	1.0%	1.1	.	-20.7%
O=C(NCC1CCCO1)c1cc(-c2ccc(F)cc2)no1 (stereo not drawn)	-0.3%	.	-37.9%	12.7%	-4.7	0.6%	14.2%
CC1(c2ccc(OC(F)F)cc2)NC(=O)N(CC(=O)NC2CCCCC2)C1=O (stereo not drawn)	1.4%	0.0	-23.9%	10.9%	-4.3	-2.3%	2.6%
CCCCCn1c(=O)[nH]c2cc(C(=O)NC3CCN(Cc4ccccc4)CC3)ccc2c1=O	22.1%	.	-8.7%[15.4 µM]	-5.4%	-1.2	.	.
O=C(Nc1ccc(Nc2ccccc2)cc1)N1CCOCC1	21.1%[38.3 µM]	-0.6	-25.9%	-3.8%	-2.5	-4.7%	-3.4%
Cc1nc2cnc(N3CCN(C)CC3)nc2n(Cc2ccc(F)cc2)c1=O	-1.3%	-2.2	.	.	.	.	10.0%
CCN(C(=O)CSc1nc(C)nc2sc(C)c(C)c12)C1CCS(=O)(=O)C1 (stereo not drawn)	0.9%	.	?	-12.9%	-0.9	-5.8%	.
COc1ccc(N(CC(=O)N2CCc3ccccc3C2)S(=O)(=O)c2c(C)nn(C)c2C)cc1	3.9%	2.2	-62.8%[inhibitor]	6.0%	-6.8	-1.7%	3.6%
CC1(C2CC2)NC(=O)N(CC(=O)N2CCN(c3ccccc3Cl)CC2)C1=O (stereo not drawn)	4.2%	.	4.4%	4.9%	0.1	-5.3%	.
COC(=O)C1C2C=CC3(CN(C(C)c4ccc(OC)cc4)C(=O)C13)O2 (stereo not drawn)	1.9%	6.3	7.8%	9.4%	-1.6	0.0%	7.1%
O=C1CCS/C(=N\N=C\c2ccc(Cl)cc2Cl)N1	-0.8%	0.0	-2.4%[15.4 µM]	-12.5%	1.0	-3.1%	0.8%
O=C(COc1ccccc1Cl)N(Cc1cccs1)C1CCS(=O)(=O)C1 (stereo not drawn)	5.5%	1.1	16.3%[15.4 µM]	-6.4%	-10.6	-1.5%	5.9%
Cc1[nH]c2ccc(Br)cc2c(=O)c1CN1CCCCCC1	-0.2%	5.0	20.9%	-7.3%	-1.4	-5.3%	6.0%
CC(=O)N1CCN(C(=O)C2CCN(S(=O)(=O)c3ccccc3C(F)(F)F)CC2)CC1	-1.4%	.	-2.1%	2.7%	-1.7	.	.
CC(C)c1cc(C(=O)OCC(=O)N2CCN(C(=O)c3ccco3)CC2)c(O)c(C(C)C)c1	11.2%	.	-29.9%	-2.3%	-5.4	-28.0%	-3.5%
COCC(=O)Nc1nc2n(n1)C(c1ccc(Cl)cc1)CC(c1ccc(OC)cc1)N2 (stereo not drawn)	-2.0%	?	-25.7%	-16.4%	-8.6	?	-26.5%
CC(C)COc1ccc(C(=O)N(CC(=O)Nc2ccccc2C(F)(F)F)Cc2ccco2)cc1	4.2%	.	29.1%[15.4 µM]	-3.1%	-2.5	.	.
COc1ccc(-c2nc3c(c(=O)c4ccccc4n3C)c(=O)n2Cc2ccccc2)cc1	9.7%	1.7	-1.0%	4.2%	0.0	-3.6%	15.2%
COC(=O)[C@H](CC(C)C)NC(=O)NCc1ccc(Cl)cc1	2.5%	7.3	-10.8%[15.4 µM]	-11.2%	1.6	.	0.4%
O=C1CCCC2=C1C1c3ccccc3C(=O)N1c1ccc(C(=O)c3ccccc3)cc1N2 (stereo not drawn)	3.2%	-4.4	?	-25.0%	2.2	-5.4%	5.3%
COCCNC(=S)NNC(=O)c1ccc(-n2cnnn2)cc1	2.1%	0.2	0.3%[15.4 µM]	26.7%	-2.2	.	20.1%
COC(=O)CN1C(C)=Nc2ccc(Br)cc2C1c1ccccc1 (stereo not drawn)	-0.1%	4.3	12.0%	0.8%	-1.3	-1.7%	0.4%
CCOc1ccc(NC(=O)Cn2nnc(C(=O)NCc3cccs3)c2N)cc1	3.5%&1.7%	5.1	27.1%	9.7%	-2.5	-0.3%&1.7%	0.7%
Nc1c(C(=O)O)cnc2nc(N3CCOCC3)nn12	2.0%	7.2	-5.1%[15.4 µM]	13.4%	-0.4	.	10.0%
COc1ccc(C=NOCC(=O)OCC(=O)Nc2ccc(OC)cc2)cc1	2.3%	.	10.2%	7.2%	2.6	1.0%	.
Cc1ccc2oc(=O)c3cnn(CC(=O)NC4CCC(C)CC4)c3c2c1 (stereo not drawn)	2.3%	-2.4	0.1%	0.4%	3.1	1.2%	?
CC(C)(C)c1ccc(C(CC(=O)O)NC(=O)c2ccccc2F)cc1 (stereo not drawn)	-1.2%	-0.6	7.2%	2.2%	0.4	.	20.4%
COc1cccc(/C=C2\SC(N)=NC2=O)c1OS(=O)(=O)c1ccccc1	7.8%	-4.5	-0.6%	-8.1%	-3.4	.	6.0%
CC/C(O)=C1\C(=O)CC(c2ccccc2)CC1=NCCc1c(C)[nH]c2ccc(C)cc12 (stereo not drawn)	0.8%	1.1	?	-34.8%	-3.1	-5.5%	4.7%
O=C(c1cccnc1Nc1ccc2c(c1)CCC2)N1CCOCC1	-1.0%[38.3 µM]	8.2	?	5.8%	-2.3	-0.2%	6.5%
COc1ccccc1/C=C/C=N/NC(=O)c1cc(-c2ccc(C)o2)[nH]n1	3.0%	0.5	-1.5%	-30.2%	7.1	.	?
CC(CC(=O)Nc1ccc2c(c1)c(=O)n(C)n2-c1ccccc1)c1ccccc1 (stereo not drawn)	2.8%	.	.	.	-3.6	4.5%	.
C=C(C)CCC(C)N1CCC(n2nccc2NC(=O)CCOc2ccccc2)CC1 (stereo not drawn)	-1.0%	.	10.6%[15.4 µM]	1.7%	-4.2	-1.7%	-0.5%
CCOC(=O)/C(C#N)=C/c1c(Oc2cc(C)cc(C)c2)nc2ccccn2c1=O	7.6%	2.5	0.6%	8.7%	-0.9	-0.5%	-14.0%
CCOc1ccc(C2N(c3cc(Cl)ccc3OC)C(=O)C3CCCN32)cc1OC (stereo not drawn)	1.7%	2.4	?	3.8%	-0.1	-1.8%	-2.0%
CCc1ccccc1NC1=NCC(=O)N1Cc1ccc(OC)cc1	-1.6%	1.2	-15.2%	2.3%	-1.0	-2.1%	10.4%
CC1(C)CSC(=S)N1S(=O)(=O)c1ccccc1	8.6%[38.3 µM]	6.8	-10.3%	-9.1%	-0.6	-0.8%	-4.1%
COc1cc(/C=C/c2nc3ccccc3c(=O)[nH]2)ccc1OC(F)F	1.4%	5.6	-26.7%	-5.8%	3.8	24.5%	4.4%
C=C1C[C@H]2[C@@H]3C=C(C)C4=CC(=O)CC[C@]4(C)[C@H]3CC[C@]2(C)[C@@]1(OC(C)=O)C(C)=O	5.0%	?	.	-22.0%	-5.5	1.2%	?
CC(C)CNC(=O)C(=O)Nc1cc2c3c(c1)CCC(=O)N3CCC2	2.3%	.	6.2%	5.9%	-1.3	-2.0%	20.3%
CCSc1nnc(NC(=O)COc2ccccc2)s1	1.1%[38.3 µM]	1.9	24.5%	-1.4%	-1.1	-0.8%	3.8%
CN(C1CCCCC1)S(=O)(=O)c1ccc(C(=O)O)cc1	2.3%	-1.7	20.4%	-15.4%	-0.2	-10.5%	16.9%
CCN(CC)CCNC(=O)CCc1n[nH]c(=O)c2ccccc12	1.0%	0.2	-29.7%	15.1%	-0.6	-3.1%	10.2%
Cc1ccnc(N2CCC(C(=O)NNC(=O)c3ccncc3)CC2)n1	-2.6%	-2.8	-0.4%	6.2%	3.7	-24.2%	8.9%
O=C(NC(=S)Nc1ccc(C(=O)N2CCOCC2)cc1)c1ccc([N+](=O)[O-])cc1	3.8%[38.3 µM]	3.6	0.6%	-5.0%	-0.4	-2.6%	4.9%
Cc1ccc(N2CC(C(=O)Nc3ccc(N4CCOCC4)cc3)CC2=O)cc1C (stereo not drawn)	4.0%	-0.7	-2.5%[15.4 µM]	8.5%	1.9	.	-10.7%

Complete entries from above. Order of screens: PINK1 modulator, Menin-MLL FL inh, gsp ag, gsp antagonist, D2 agonist, ClpP mod, Sfp inh
Shown for CCSc1nnc(NC(=O)COc2ccccc2)s1 : 1.1%[38.3 µM], 1.9, 24.5%, -1.4%, -1.1, -0.8%, 3.8%
Shown for CCOc1ccc(C2N(c3cc(Cl)ccc3OC)C(=O)C3CCCN32)cc1OC (stereo not drawn) : 1.7%, 2.4, ?, 3.8%, -0.1, -1.8%, -2.0%
Shown for COc1cc(/C=C/c2nc3ccccc3c(=O)[nH]2)ccc1OC(F)F : 1.4%, 5.6, -26.7%, -5.8%, 3.8, 24.5%, 4.4%
Shown for Cc1ccc(N2CC(C(=O)Nc3ccc(N4CCOCC4)cc3)CC2=O)cc1C (stereo not drawn) : 4.0%, -0.7, -2.5%[15.4 µM], 8.5%, 1.9, ., -10.7%
Shown for CN(C1CCCCC1)S(=O)(=O)c1ccc(C(=O)O)cc1 : 2.3%, -1.7, 20.4%, -15.4%, -0.2, -10.5%, 16.9%

High-throughput results: PubChem, National Center for Advancing Translational Sciences (NCATS)
